Screens as filed in PubChem.
PABP polyA inh – PABP poly(A) RNA binding inhibitors, primary screen, biochemical, fluorescence polarization, uHTS | AID 2014, 2009 | inhibition, % at 35 µM | hit rate 1% among 290,000 | Polyadenylate-binding protein 1 (Homo sapiens), P11940;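 active = 50% or more with normal probe brightness, or confirmed in later tests; inconclusive = above 50% with abnormal brightness, or retests that disagree; inactive = below 50% or failed in later tests; about a fifth of its hits are not listed in these tables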;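 also: calls also rest on retests at 20 µM and on dose response follow-up; controls were probe without protein and protein plus probe with vehicle; some compounds called inactive have numbers as strong as hits; many hits fall short of the cut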
Target sequence (P11940 whole entry, looked up): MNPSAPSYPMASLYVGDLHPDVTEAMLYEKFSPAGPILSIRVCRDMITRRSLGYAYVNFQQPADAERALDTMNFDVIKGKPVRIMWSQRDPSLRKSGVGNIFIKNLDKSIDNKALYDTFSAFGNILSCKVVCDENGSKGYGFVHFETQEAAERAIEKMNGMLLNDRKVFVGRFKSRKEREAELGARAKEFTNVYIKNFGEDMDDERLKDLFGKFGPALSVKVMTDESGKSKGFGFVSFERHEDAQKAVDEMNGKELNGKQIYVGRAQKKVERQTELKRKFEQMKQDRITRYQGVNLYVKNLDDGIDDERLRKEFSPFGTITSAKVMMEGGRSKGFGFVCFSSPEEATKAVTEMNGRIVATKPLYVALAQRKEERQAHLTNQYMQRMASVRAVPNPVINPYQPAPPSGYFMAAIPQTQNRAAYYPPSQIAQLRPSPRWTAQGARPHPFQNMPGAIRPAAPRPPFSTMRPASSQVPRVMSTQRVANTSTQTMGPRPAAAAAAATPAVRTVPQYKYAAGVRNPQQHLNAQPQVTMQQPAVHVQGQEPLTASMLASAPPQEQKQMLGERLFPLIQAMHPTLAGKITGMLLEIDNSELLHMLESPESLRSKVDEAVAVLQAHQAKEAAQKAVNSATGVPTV
Rce1 inhib – yeast Rce1p protease inhibitors, primary screen, biochemical, fluorescence, cell-free homogeneous | yeast membranes, quenched prenylated peptide cleavage fluorescence | hit rate 0.27% among 290,000 | calls only | CAAX prenyl protease 2 (Saccharomyces cerevisiae (strain ATCC 204508 / S288c)), Q03530;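 active = fall in fluorescence gain of 50% or more versus controls, with final raw signal at or below 3038400; inconclusive = same 50% fall but final raw signal above 3038400; inactive = fall in fluorescence gain under 50%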;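 also: plate controls were neutral control wells for no effect and wells lacking membranes for full effect; tested at 10 µM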
UUG fidelity – modulators of yeast start codon fidelity, primary screen, whole organism, S. cerevisiae, single point, plate reader; S. cerevisiae UUG-firefly luciferase reporter, luminescence/redox ratio; activity score, % at 18.7 µM; hit rate 0.13% among 350,000; AID 602363, 2012;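 active = replicate mean at a twofold rise or more, about +100% in these data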;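 also: firefly luciferase made from a UUG start codon reports start codon fidelity; reporter light over untreated wells divided by growth signal over untreated wells; some hits fall short of that in this replicate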
CSC inhib – cancer stem cell viability inhibitors, primary screen, luminescence; AID 2717, 2010; cancer stem cell-like cells viability; inhibition, % at 7.5 µM; hit rate 1.1% among 300,000;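 active = mean at 75% or more and at least half the replicates too; inconclusive = mean and replicates disagree; tested in HMLE shEcad cells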;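 also: 0% = median of negative and 100% = median of positive control wells; the first replicate is given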
eIF4H inh – human eIF4H binding inhibitors, primary screen, translation initiation inhibitor project, biochemical, uHTS, fluorescence polarization; eIF4H fluorescence polarization binding assay; inhibition, % at 35 µM; hit rate 0.94% among 290,000;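 active = 50% or more with normal probe brightness, or confirmed in later tests; inconclusive = above 50% with abnormal brightness, or retests that disagree; inactive = below 50% or failed in later tests; about a fifth of its hits are not listed in these tables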;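 also: calls also rest on retests at 20 µM and on dose response follow-up; 0% = protein and probe with vehicle and 100% = probe without protein; strong numbers were not always called active; many hits fall short of the cut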
MT1-MMP act inh – blockers of MT1-MMP proenzyme processing, primary screen, HT1080 RFP-PRO-GFP cells, GFP/RFP fluorescence. Matrix metalloproteinase-14 (Homo sapiens), P50281. GFP/RFP ratio fluorescence, overnight; percent of plate control window, DMSO zero. GFP/RFP ratio change, % at 20 µM. hit rate 0.061% among 360,000;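 active = GFP/RFP ratio change of at least 30% with cell ATP level not reduced by more than half and red fluorescence within 50% of control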; also: strong numbers were not always called active
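Material: RFP-PRO-GFP reporter HT1080 cells. Dosing: single-point 20 µM compound, 1% DMSO. Controls: DMSO and RFP-L50D-GFP cell wells. Timing: cells overnight before dosing, compound overnight, 37 °C, 5% CO2. Measure: GFP/RFP fluorescence ratio.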
HIV Env fusion – inhibitors of HIV-1 Env-driven cell-cell fusion, primary screen, HeLa-JRFL effector, CEM21 target cells, luciferase; inhibition, % at 12.3 µM; hit rate 1.1% among 360,000; AID 651610, 2012;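 active = mean replicate inhibition score of at least 50 and every replicate individually at or above 50; inconclusive = only one of the two criteria met; inactive = mean below 50 and not all replicates reaching 50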;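 also: 0% = plate neutral controls and 100% = maraviroc near 300 nM; one replicate is shown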
eIF4H inh retest – recorded beside eIF4H inh, whose call it bears; inhibition, %; compound at 20 µM; confirmation average;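 mean of two retest wells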
PABP polyA inh retest – also measured in PABP polyA inh; calls as there; inhibition, %; compound at 20 µM; confirmation repeats;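 mean of two retest wells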
MT1-MMP act inh RFP – second read-out of MT1-MMP act inh, no call of its own (marks repeat the call); RFP signal change, %; measured here: RFP expression control read;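 0 = vehicle wells; hits needed this value within 50% of zero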
* marks the source's active call; other numbers are inactive results; i = inactive; ? = inconclusive; / = not tested or not shown.

SMILES	PABP polyA inh	Rce1 inhib	UUG fidelity	CSC inhib	eIF4H inh	MT1-MMP act inh	MT1-MMP act inh RFP	HIV Env fusion	others
CCCC(=O)NC(c1ccc(OC)c(OC)c1)c1c(O)ccc2ccccc12 (stereo not drawn)	-6	i	-12	-18	-4	-1	0	13
COc1ccc(NC(=O)CC2S/C(=N\c3nccs3)N(C)C2=O)cc1 (stereo not drawn)	-4	i	/	-9	-10	4	3	-2
Cn1c(C(=O)N2CCN(Cc3ccc4c(c3)OCO4)CC2)cc2sccc21	-4	i	-7	/	-15	-1	0	?
CCc1ccc(S(=O)(=O)/N=C2\C=C(Nc3ccc(O)cc3)C(=O)c3ccccc32)cc1	7	i	-21	/	-2	-6	-31	/
O=C(COc1ccccc1)Nc1cccc(-c2ccc(N3CCOCC3)nn2)c1	/	i	-25	/	/	4	-1	-156
COc1ccc(NC(=O)CCNC(=O)N2CC(=O)Nc3ccccc32)cc1	/	/	-2	/	/	3	4	17
CCN(CC)S(=O)(=O)c1cccc(C(=O)OC2CCOC2=O)c1 (stereo not drawn)	16	i	-5	20	-4	4	5	-12
O=C(Nc1ccc(F)cc1)Nc1ccc2ccccc2n1	-5	i	-7	4	-1	-1	-1	-20
COc1ccc(COCC(CC(C)C)N2CCN(C(=O)c3cccc(C(F)(F)F)c3)CCC2=O)cc1 (stereo not drawn)	10	i	6	8	-2	1	0	-3
COc1ccc(-c2nnc(SCC(=O)Nc3ccccc3)n2C)cc1	-13	/	-2	-9	3	1	-2	/
COc1ccccc1C(=O)N=c1sc2c(C)ccc(OC)c2n1C	-6	i	/	8	-5	3	-1	-61
Cc1ccc(NC(=O)c2ccc(Cl)cc2Cl)cc1O	-4	i	-17	25	10	-6	-7	-126
Cc1ccc(CNC(=O)C2CCC(=O)N2C2CCCCC2)cc1 (stereo not drawn)	4	i	-13	7	-4	5	3	/
CC(OC(=O)c1ccc(NC(=O)CC#N)cc1)C(=O)NCCC1=CCCCC1 (stereo not drawn)	/	/	-11	-12	/	3	4	76*
CN(CC(=O)Nc1sccc1C(N)=O)S(=O)(=O)c1ccc(Cl)cc1	/	/	-12	12	/	1	-1	/
CC1CC(C)CN(CCCNC(=O)Cn2ncc3c([nH]c4ccccc43)c2=O)C1 (stereo not drawn)	-1	i	-13	-23	-12	-6	1	5
CS(=O)(=O)c1ccc2nc(NC(=O)Nc3ccc(Cl)c(Cl)c3)sc2c1	-3	i	/	0	2	-1	-5	27
Cc1ccc(C)c(OC(=O)C2CSC3(C)CCC(=O)N23)c1C (stereo not drawn)	/	/	-14	/	/	2	-2	-4
CN(C)c1ccc(C(=O)OCC(=O)NC2CCCCC2)cc1	6	i	-3	23	2	-3	-2	4
COC(=O)/C(=C\C(=O)c1ccc([N+](=O)[O-])cc1)Nc1ccc(OC)cc1	7	i	5	9	-5	2	2	-30
COc1ccc(-c2cc(=O)c3cc(OC)ccc3o2)cc1	67	i	-18	3	3	0	2	/	eIF4H inh retest=1;PABP polyA inh retest=5
CCOc1ccc(C(C)NC(=O)C2CCN(S(=O)(=O)c3ccc(OC)cc3)CC2)cc1OCC (stereo not drawn)	/	/	-5	/	/	-1	-2	-4
COc1ccc(N2C(=S)N=C(Nc3cccc(C)c3)C23CCCCC3)cc1	10	i	/	-8	5	1	-3	14
CCOC(=O)N1CCN(C(=O)COC(=O)CNC(=O)c2ccc(OCC)c(OCC)c2)CC1	/	/	5	/	/	2	-2	16
O=S(=O)(c1ccc(-n2cnnn2)cc1)N(C1CCCCC1)C1CCCCC1	0	/	-11	44	-3	3	2	-5
CCOCc1cn(CC(=O)c2ccc([N+](=O)[O-])cc2)c(C)nc1=N	-2	i	17	-25	-8	1	-4	/
CC(C)n1c(N2CCN(S(=O)(=O)c3cccc([N+](=O)[O-])c3)CC2)nc2ccccc21	-9	i	-6	-22	-1	-8	-9	-20
COc1ccccc1-c1cc(C(=O)N2CCc3ccccc3C2)c2ccccc2n1	-2	i	/	17	-6	/	/	/
O=C1N=C(N2CCCC2)CN1c1ccccc1	6	i	/	-11	9	4	8	/
CN(C)c1cncc(C(=O)O)c1	-1	i	/	/	10	3	8	-6
Cc1ccc(C)c(OCCCCN2CCNCC2)c1C	12	i	-24	129*	-9	1	0	5
CC1=C(C(=O)N2CCCCCC2)CC(CC(=O)NC2CCCCC2)C(=O)N1Cc1ccccc1 (stereo not drawn)	/	/	19	/	/	1	1	-31
Fc1cccc(F)c1/C=N/N1CCOCC1	-7	i	/	-20	0	0	0	5
N#C/C(=C\N1CCOCC1)S(=O)(=O)c1ccc(Cl)cc1	-2	i	-54	-5	-8	0	3	-2
COc1cccc(CNC(=O)C(c2ccc(Cl)cc2)C(C)C)c1 (stereo not drawn)	-18	i	-4	11	-5	2	3	-36
O=C(Nc1nccs1)C1CC(=O)N(c2ccc(F)cc2)C1 (stereo not drawn)	-6	i	/	-13	-8	1	0	-5
COc1ccc(CNC(=O)CN(Cc2ccco2)C(=O)CCC(=O)Nc2ccccn2)cc1	0	i	22	16	1	0	2	7
CC(C)c1ccc(NC(=O)C2CC(=O)N(C(C)C)C2)cc1 (stereo not drawn)	-19	i	-1	-12	-7	-5	5	-19
O=C(O)COCC(=O)Nc1cc(C(F)(F)F)cc(C(F)(F)F)c1	-3	i	/	0	5	-3	-2	-10
CN(CC(=O)Nc1ccc(N2CCOCC2)cc1)CC(=O)Nc1ccc(Cl)cc1[N+](=O)[O-]	0	i	/	-12	0	-6	-2	12
COCCCNC(=O)CSc1nc2cc3c(cc2c(=O)n1CCCC(=O)NCc1ccc(OC)cc1)OCO3	-2	i	-10	-1	-6	-2	3	12
COc1cccc(OC)c1C(=O)NC(C)CCc1ccccc1 (stereo not drawn)	11	i	-10	1	26	2	5	1
O=C(Cn1cc2c(n1)CCCC2)NCc1cccs1	1	i	-8	-11	-2	3	1	1
Cc1ccc(C)c(Oc2ccc(S(=O)(=O)N3CCN(C)CC3)cn2)c1	/	/	-13	-8	/	-3	-4	-16
Nc1nonc1-n1nnc(C(=O)N/N=C/C2CCCCC2)c1-c1ccccc1	/	i	-22	-7	/	0	5	-1
Nc1c(C(=O)NCCc2ccccc2)nnn1Cc1ccc(Br)cc1F	10	i	/	-3	4	2	4	27
On1onc2c3cc(-c4ccccc4)nc3ccc21	5	/	-16	0	3	-19	-11	/
CCOc1ccc(/C=C(\C(=O)O)c2ccc(S(=O)(=O)N3CCCCC3)s2)cc1OC	/	/	-11	10	/	0	4	-27
COc1ccc(CNC(=O)C(c2ccco2)N(C(=O)c2snc(C(N)=O)c2N)c2cccc(OC)c2)cc1 (stereo not drawn)	-1	/	-4	-6	-14	2	-3	-5
O=C(COc1ccc2c(-c3ccccc3)cc(=O)oc2c1)Nc1cccnc1	13	i	-16	-6	35	2	-27	-3
COc1cc(N=c2ssnc2Cl)cc(OC)c1	28	i	-18	11	-8	-10	-1	13
Nc1ccc(C(=O)Nc2ccc(Nc3ccncc3)cc2)c([N+](=O)[O-])c1	/	/	-19	/	/	-2	1	4
CCN1C2OC3OC4C(OC3OC2N(CC)S1(=O)=O)N(CC)S(=O)(=O)N4CC (stereo not drawn)	-9	i	-15	-15	10	5	3	15
CCCCCCCCNCCS(=O)(=O)NCc1ccc(OC)cc1	/	/	-1	/	/	2	1	1
O=C1NN(c2ccccc2)C(=O)/C1=C/c1ccc(-c2cccc(C(=O)O)c2)o1	36	i	0	-1	46	-6	3	-20
COc1cc(CNc2ccc(N3CCOCC3)c(C(=O)O)c2)ccc1OCC(N)=O	13	i	-14	1	0	-3	-3	-153
CN(Cc1ccccc1)c1ccc(C(=O)O)cc1[N+](=O)[O-]	-1	i	4	/	-12	-5	-2	-18
CCC1CCCCN1S(=O)(=O)c1ccc(C(=O)Nc2nnc(C3=COCCO3)o2)cc1 (stereo not drawn)	7	i	-14	21	12	-1	-1	-6
CC1CC(=O)N(c2ccc(NCc3ccc(Cl)cc3)c([N+](=O)[O-])c2)C1=O (stereo not drawn)	-8	i	-13	4	1	9	-1	17
CCOC(=O)C1CCN(C(=O)CSc2n[nH]c(=O)[nH]c2=O)CC1	-2	i	1	1	-11	2	3	/
New compounds follow.
SMILES	PABP polyA inh	Rce1 inhib	UUG fidelity	CSC inhib	eIF4H inh	MT1-MMP act inh	MT1-MMP act inh RFP	HIV Env fusion	others
COc1ccc(NC(=O)CCNS(=O)(=O)c2cccc3nsnc23)cc1	7	i	/	3	5	-1	1	6
COc1ccccc1CNC(=O)c1nnc(Cc2ccc(Cl)cc2)o1	-1	i	-2	-17	9	4	5	1
O=C(O)c1ccccc1/C=N/Nc1ccc(S(=O)(=O)N2CCOCC2)cc1[N+](=O)[O-]	-4	i	/	/	2	4	2	-4
COc1ccc(-c2ccc3c(c2)[C@@H]2C[C@H](N(C)C(=O)Nc4ccccc4)[C@H]([C@H](C)O)C(=O)N2CC3)cc1	/	/	-2	/	/	3	0	-22
NC(=O)c1ccsc1NC(=O)CSc1nnc(C2CC2)n1Cc1ccccc1	3	i	-20	-8	8	0	-1	/
O=C([C@@H]1Cc2ccccc2CN1)N1CCN(Cc2ccccc2)CC1	16	i	3	-7	8	3	6	2
CCCOc1ccc(C(=O)N/N=C/c2ccc(-c3ccc(S(=O)(=O)Nc4ncccn4)cc3)o2)cc1	15	i	-11	1	51	-5	-3	-70	eIF4H inh retest=23;PABP polyA inh retest=-28
O=C(NC1(C(F)(F)F)NC(=O)N(c2ccc(F)c(Cl)c2)C1=O)c1ccncc1 (stereo not drawn)	-5	i	-21	-2	4	2	3	/
CC1CCN(C(=O)CSc2n[nH]c(-c3cccs3)n2)CC1	-2	i	-10	2	3	1	2	4
Cc1ccc(NS(=O)(=O)c2cccc(C(=O)O)c2)cc1S(=O)(=O)N1CCOCC1	-1	i	/	-5	4	6	7	-5
COC(=O)c1c(NC(=O)CSc2ccccc2N)sc(C)c1C	5	i	-12	6	2	5	-3	-14
COc1ccc(S(=O)(=O)NCCC(=O)NC(C)c2ccccc2)cc1 (stereo not drawn)	-1	i	0	-17	4	4	-1	-22
O=C(Cc1ccc(-c2ccccc2)cc1)NCc1ccccc1	9	i	-12	/	-6	9	-1	1
O=C(CN1CCN(S(=O)(=O)c2ccc(Br)s2)CC1)NCC1CCCCC1	/	/	-17	/	/	3	2	30
CC(=O)Oc1cc2c(C(=O)NCc3ccncc3)c(C)oc2c2ccccc12	5	i	-2	5	3	5	-6	7
O=C(CNC(=O)c1ccc2c(c1)OCO2)NCc1cccs1	/	/	-2	-4	/	0	0	-84
O=C(CN1C(=O)S/C(=C\c2ccc(C(=O)O)cc2)C1=O)Nc1ccccc1	6	i	-15	-8	-4	-1	4	13
COc1ccc(CNC(=S)N/N=C(\C)c2ccc(OC)cc2)cc1	-4	i	16	9	-4	-1	4	1
COC(=O)Cc1ccc(OCc2ccc(Cl)nc2)cc1	-2	i	-15	9	-18	6	1	-20
